# Source: PubChem
# Mtb betalactam = beta-lactam sensitization of Mtb H37Rv; M. tuberculosis H37Rv growth with meropenem, percent inhibition; hits of this screen are not shown here; inhibition, % at 25 µM; actives 0.27% (n = 330,000); AID 434955;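 active means about 74% or more and at least 40 points above the plate without the antibiotic, then above 30% in a dose series; inconclusive means first-round hits that could not be retested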;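 further: growth measured after seven days incubation then overnight dye step; 0% = bacteria only wells and 100% = bacteria with antibiotic; twin plates without the antibiotic show which effects depend on it; some results filed as inactive read as strong as hits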
# YopH inh = blocks Yersinia enterocolitica YopH tyrosine phosphatase; fluorescence Ex485/Em525; AID 898; inhibition, %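 (about 10 µM by stock and volumes)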; actives 0.16% (n = 140,000);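 active means inhibition of 50% or more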;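 further: controls were vehicle for no effect and minimum signal wells for full effect; inactives centre near -20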
# Arbovirus anti = arbovirus infection inhibition | arbovirus infection cell-based antiviral screen | inhibition, % at 10 µM | actives 0.37% (n = 200,000);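 active means inhibition from about 30%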;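 further: bluetongue infection of BSR cells; cell survival read as ATP light after 72 h; 0% = infected wells without compound and 100% = uninfected wells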
# RecA intein inh = blocks M. tuberculosis RecA intein splicing | P9WHJ3 | cell-free RecA intein splicing, fluorescence | inhibition, %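 (about 9 µM by stock and volumes)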 | actives 0.75% (n = 290,000) | AID 2221; in the data active means inhibition above about 30%; inconclusive means no clear call, values can overlap the other calls;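 further: 0% = vehicle wells and 100% = reference inhibitor control wells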
# Target sequence (P9WHJ3 whole entry, looked up): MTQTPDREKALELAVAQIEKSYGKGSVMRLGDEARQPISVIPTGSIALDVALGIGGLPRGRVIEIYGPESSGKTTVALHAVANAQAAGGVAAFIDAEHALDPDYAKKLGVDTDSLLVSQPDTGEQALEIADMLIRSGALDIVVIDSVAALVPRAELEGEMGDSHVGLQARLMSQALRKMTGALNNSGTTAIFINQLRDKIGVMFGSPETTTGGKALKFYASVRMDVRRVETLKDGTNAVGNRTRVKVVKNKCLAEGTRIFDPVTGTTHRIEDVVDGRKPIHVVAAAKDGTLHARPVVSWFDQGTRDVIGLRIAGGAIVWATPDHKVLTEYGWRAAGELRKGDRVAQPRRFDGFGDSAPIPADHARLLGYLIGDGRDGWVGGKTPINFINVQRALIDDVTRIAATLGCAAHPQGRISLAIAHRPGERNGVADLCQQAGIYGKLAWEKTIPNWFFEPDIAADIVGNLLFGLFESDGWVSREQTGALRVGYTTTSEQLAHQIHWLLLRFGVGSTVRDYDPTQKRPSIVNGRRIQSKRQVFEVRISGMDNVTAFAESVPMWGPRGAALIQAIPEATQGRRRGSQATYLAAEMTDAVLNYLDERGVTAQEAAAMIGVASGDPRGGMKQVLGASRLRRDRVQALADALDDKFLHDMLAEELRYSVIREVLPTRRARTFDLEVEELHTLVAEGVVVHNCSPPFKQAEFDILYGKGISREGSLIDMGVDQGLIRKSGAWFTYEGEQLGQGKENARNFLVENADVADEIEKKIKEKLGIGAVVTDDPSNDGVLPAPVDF
# Mtb H37Rv = M. tuberculosis H37Rv growth inhibitors, H37Rv strain (AID 1626); M. tuberculosis H37Rv growth inhibition; higher % means a stronger effect; inhibition, % at 10 µM; hits with a dose series show IC50 in µM; actives 0.95% (n = 220,000);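 active means confirmed in a dose series; inconclusive means inhibition above 80% but not taken into the dose series; inactive means below 80% or under 30% at every dose of the series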;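 further: bacteria incubated seven days before Alamar blue readout; 0% = bacteria only wells and 100% = bacteria with antibiotic wells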
# Arbovirus anti repeat = recorded beside Arbovirus anti, whose call it bears; inhibition, %; measured here: 10K subset replicate screen; many hits read low in the repeat;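 first of two repeat runs on a subset; 0% = infected and 100% = uninfected wells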
# * hit, by the source's call; ? = inconclusive; . = not tested or not shown. Only part of the results is shown, so the mix of outcomes need not match the whole.
SMILES,Mtb betalactam,YopH inh,Arbovirus anti,RecA intein inh,Mtb H37Rv,others
COc1ccc(C(=O)NC(=S)SCC(=O)O)cc1,-7.9,.,.,-3.5,-2.4%,
CN1CCN(C2=Cc3ccccc3Sc3cc(F)c(F)cc32)CC1,42.0,-6.0,-35.3,5.9,11.1%,
CCOc1ccc(NS(=O)(=O)c2cc(Cl)ccc2OC)cc1,-12.0,-1.7,-0.6,18.5,-8.7%,Arbovirus anti repeat=3.7
COc1ccc(S(=O)(=O)NCc2ccncc2)cc1OC,-12.1,-23.2,1.0,-3.0,10.0%,
COC(=O)C1=C(C(=O)OC)[C@@H]2N(Cc3ccccc3)c3ccccc3[C@@]23C[C@@H](C(=O)OC)N(C(=O)COCc2ccccc2)C3=N1,-1.9,.,.,1.4,-6.9%,
COc1ccccc1N1CCN(CCC(=O)Nc2cccc(Cl)c2)CC1,0.1,.,.,2.0,.,
CC(=O)N1CSCC1C(=O)NNS(=O)(=O)c1cccc(C(F)(F)F)c1 (centres undefined),-11.4,.,.,-2.8,-7.5%,
Cc1ccc(C)c(S(=O)(=O)NCC(=O)NCc2ccco2)c1,-2.2,-27.1,-3.1,-0.8,-8.7%,
Cc1nnnn1/C(=C\c1ccccc1)C(=O)OCC(=O)N1CC2(C)CC1CC(C)(C)C2 (centres undefined),-3.2,-42.5,-4.7,12.5,-1.2%,
O=C(Nc1ccc2ccccc2c1)N1CCCN(CCOc2ccccc2)CC1,-3.0,.,.,2.0,-0.3%,
O=C(CSc1ccccc1)N1CCN(c2ccccc2)CC1,0.0,4.5,13.0,1.1,-14.1%,
COc1cc(NC(=O)Cc2c(C(=O)O)[nH]c3ccccc23)cc(OC)c1OC,-4.0,-25.3,8.9,0.3,-2.8%,
COCCNC(=O)Cn1nc(C(F)(F)F)c(Br)c1C,2.1,-21.9,2.8,-1.7,3.3%,
CCOC(=O)CN1C(=O)NC2(CCCc3ccccc32)C1=O (centres undefined),-2.9,.,.,0.1,.,
O=C(CSc1nnnn1C1CCCCC1)Nc1nc2c(s1)CCCC2,98.1,-29.0,-14.2,5.2,?,

# Already shown: two of the compounds above.
SMILES,Mtb betalactam,YopH inh,Arbovirus anti,RecA intein inh,Mtb H37Rv,others
COc1ccc(C(=O)NC(=S)SCC(=O)O)cc1,-7.9,.,.,-3.5,-2.4%,
CN1CCN(C2=Cc3ccccc3Sc3cc(F)c(F)cc32)CC1,42.0,-6.0,-35.3,5.9,11.1%,

# (continued)
SMILES,Mtb betalactam,YopH inh,Arbovirus anti,RecA intein inh,Mtb H37Rv,others
Cc1ccc(-n2nc3c(N4CCC(C(=O)NCCc5ccco5)CC4)nnc(C)c3c2C)cc1,30.9,.,.,-3.8,.,
CCCC[N+]12CCC(CC1)C(Cc1ccccc1)C2 (centres undefined),-10.2,.,.,0.0,3.3%,
CCOC(=O)CSc1cn2c(n1)CCC2,-0.9,-17.4,4.0,-1.8,4.0%,
O=C(O)C(C(O)c1ccccc1)[n+]1ccccc1 (centres undefined),0.8,.,.,-0.6,.,
COC(=O)CCNC(=O)Cc1c(C)n(C(=O)c2ccc(Cl)cc2)c2ccc(OC)cc12,-1.0,.,.,0.4,.,
CCN1C(=O)[C@H]2[C@@H](c3ccc(Cl)cc3)N3C(=O)CN(CCOC)C(=O)[C@@]3(Cc3ccccc3)[C@H]2C1=O,-9.3,.,.,-0.7,.,
[N-]=[N+]=NC1CC(CO)OC1n1ccc(=O)[nH]c1=O (centres undefined),-10.6,.,.,-5.5,.,
Cc1ccc(C)c(NC(=O)Cn2c(=O)n(-c3ccc(CC(=O)NCC4CCCO4)cc3)c(=O)c3ccccc32)c1 (centres undefined),5.0,.,0.5,0.2,-18.3%,
Cc1ccccc1C(=O)N1CCN(c2ccc(NC(=S)NC(=O)c3ccco3)cc2)CC1,88.4,.,.,0.1,.,
N#CCOc1nc(N2CCCC2)nc(N2CCCC2)n1,-7.4,-18.9,7.8,1.3,-11.2%,
CC(Oc1ccc(Br)cc1)C(=O)Nc1ccc(N2CCOCC2)cc1N1CCOCC1 (centres undefined),-0.2,.,.,-1.1,.,
CCOc1ccc(-c2nc[nH]c2[N+](=O)[O-])cc1,-6.2,.,9.4,.,-3.4%,
COc1ccc(C=O)cc1COc1ccc(C)cc1[N+](=O)[O-],-9.0,4.6,-4.4,-7.7,3.1%,
COc1cccc(CNCC(O)(c2ccc(Cl)cc2)c2ccc(Cl)cc2)c1,38.2,-30.6,-35.0,10.3,-12.2%,
CCCc1nnc(SCC(=O)N2CCCCC2)n1CCCOC,-10.4,-24.2,7.9,1.8,-4.0%,
COc1ccccc1Nc1nc(-c2ccccc2O)nc2ccccc12,3.7,.,-5.7,-20.8,4.5%,
CCC(C)(C)NC(=O)C(c1cccs1)N(CC1CCCO1)C(=O)Cn1nnc2ccccc21 (centres undefined),-2.4,-38.5,18.8,1.3,1.6%,
N#Cc1ccc(-c2nc3cc(C#N)c(C#N)cc3nc2-c2ccccc2)cc1C#N,.,.,-12.8,.,12.8%,
CN1Cc2cc(C(=O)c3ccccc3O)cnc2NC1=O,0.1,-4.1,-10.0,7.2,-7.7%,
CCOC(=O)C1CCCN(C(=O)c2ccccc2SCCOC)C1 (centres undefined),4.9,-26.9,9.3,-1.6,-17.1%,
Cc1ccc2cc(CCNC(=O)c3cc4ccccc4o3)c(=O)[nH]c2c1C,-3.3,.,27.9,2.1,3.3%,
CC(C)(Oc1ccc(Cl)cc1)C(=O)OCC(=O)N1CCN(c2ccccc2)CC1,40.1,.,.,7.4,.,
CCCCn1nnnc1NCc1ccc(C)s1,1.7,-48.9,-0.7,-0.6,11.2%,
C=CCN1C(=O)C(C)(C)N(C(=O)c2cccc([N+](=O)[O-])c2)c2ccccc21,3.3,.,.,-1.0,.,
NC(=O)C1(C(N)=O)OC1c1ccc(Cl)cc1Cl (centres undefined),2.8,.,.,-1.4,-0.1%,
COc1ccc(C(=O)N/C(=C/c2ccco2)C(=O)NC2CCS(=O)(=O)C2)cc1 (centres undefined),-8.8,.,6.2,-3.1,-9.6%,
CC1(c2ccc([N+](=O)[O-])cc2)CC(C)(C)N(C(=O)c2ccccc2)c2ccccc21 (centres undefined),.,-29.4,33.6*,5.2,6.7%,
CC1CCCCN1CCCNC(=O)c1nn(C)c2c1CS(=O)(=O)c1ccccc1-2 (centres undefined),-2.0,.,.,-0.3,.,
CC(C)c1ccccc1NC(=S)NC(C)c1ccccc1 (centres undefined),1.4,-10.7,18.9,.,3.4%,
Cc1ccc(C(=O)CSc2ccc(-c3ccncc3)nn2)cc1,-4.8,.,6.2,-0.9,7.7%,

# 10 compounds from above, ordered by number of heavy atoms, descending:
SMILES,Mtb betalactam,YopH inh,Arbovirus anti,RecA intein inh,Mtb H37Rv,others
CCC(C)(C)NC(=O)C(c1cccs1)N(CC1CCCO1)C(=O)Cn1nnc2ccccc21 (centres undefined),-2.4,-38.5,18.8,1.3,1.6%,
N#Cc1ccc(-c2nc3cc(C#N)c(C#N)cc3nc2-c2ccccc2)cc1C#N,.,.,-12.8,.,12.8%,
CC1CCCCN1CCCNC(=O)c1nn(C)c2c1CS(=O)(=O)c1ccccc1-2 (centres undefined),-2.0,.,.,-0.3,.,
COc1ccc(C(=O)N/C(=C/c2ccco2)C(=O)NC2CCS(=O)(=O)C2)cc1 (centres undefined),-8.8,.,6.2,-3.1,-9.6%,
C=CCN1C(=O)C(C)(C)N(C(=O)c2cccc([N+](=O)[O-])c2)c2ccccc21,3.3,.,.,-1.0,.,
COc1ccccc1Nc1nc(-c2ccccc2O)nc2ccccc12,3.7,.,-5.7,-20.8,4.5%,
CCOC(=O)C1CCCN(C(=O)c2ccccc2SCCOC)C1 (centres undefined),4.9,-26.9,9.3,-1.6,-17.1%,
Cc1ccc(C(=O)CSc2ccc(-c3ccncc3)nn2)cc1,-4.8,.,6.2,-0.9,7.7%,
CN1Cc2cc(C(=O)c3ccccc3O)cnc2NC1=O,0.1,-4.1,-10.0,7.2,-7.7%,
NC(=O)C1(C(N)=O)OC1c1ccc(Cl)cc1Cl (centres undefined),2.8,.,.,-1.4,-0.1%,

# Additional records follow:
SMILES,Mtb betalactam,YopH inh,Arbovirus anti,RecA intein inh,Mtb H37Rv,others
C[C@H](NC(=O)c1ccccc1Cl)C(=O)NCc1cccs1,15.6,.,10.7,2.7,12.6%,
CC(=O)Nc1ccc(C(=O)N/C(=C/c2ccccc2)C(=O)Nc2cccc(C(=O)O)c2)cc1,1.7,.,0.3,0.3,-2.5%,
Cc1cccc(NC(=S)Nc2c(C)n(C)n(-c3ccccc3)c2=O)c1C,7.9,-2.8,2.8,-3.2,11.3%,
O=C(NCc1ccco1)C(=O)c1cn(CC(=O)N2CCCCCC2)c2ccccc12,-1.0,.,1.2,-4.7,.,
Cc1ccc(-c2nc(C)c(C(=O)O)s2)cc1,-8.7,.,1.2,-1.0,-2.2%,
O=C(NCc1ccco1)c1ccc2ccccc2n1,0.7,.,-0.2,-0.8,4.3%,
O=C(/C=C/c1cccc(F)c1)N(c1ccccn1)C1CCCCC1,-0.3,-30.0,0.5,-2.0,8.0%,
Nc1nnn(Cc2ccccc2)n1,2.2,-5.8,-2.5,-2.2,2.2%,
CCOc1ccc(NC(=O)N2CCC(NC(=O)c3ccco3)CC2)cc1,-1.9,-31.7,1.4,-4.7,-12.9%,
CCNC(=O)c1sc(=S)n(-c2ccc(C)cc2)c1N,.,-13.2,1.7,-2.1,7.7%,
COc1cccc(NC(=O)C(C#N)Cc2ccncc2)c1 (centres undefined),-27.8,-41.5,3.0,-4.7,0.3%,
Cc1ccc(C)c(N(C(=O)CNC(=O)c2ccco2)C(C(=O)NC2CCCCC2)c2cccnc2)c1 (centres undefined),4.9,.,.,-0.4,.,
O=C(c1cc2ccccc2o1)N1CCN(c2cccc(Cl)c2)CC1,-8.2,.,.,-1.3,.,
O=C(c1cccnc1)N1CCN(CCCc2ccccc2)CC1,6.8,-46.7,-0.4,-3.1,-0.2%,
CCOC(=O)c1[nH]cc(-c2ccccc2)c1N1CCOCC1,58.7,-15.7,-3.9,.,10.3%,
Cc1nc(NC(=O)CSc2nnc(C)n2CC2CCCO2)sc1C (centres undefined),9.4,-35.6,1.4,0.4,2.4%,
CCCCSc1ncnc2[nH]ncc12,-3.6,.,.,.,13.4%,
Cc1ccc(SC(C)c2nc(-c3ccccc3)no2)cc1 (centres undefined),-5.0,-23.6,4.9,-1.7,3.4%,
O=C(CNc1n[nH]c(=O)[nH]c1=O)N/N=C/C=C/c1ccccc1,-8.3,.,.,-3.9,-12.2%,
CCOC(=O)CNS(=O)(=O)c1cc(-c2n[nH]c(=O)c3ccccc23)ccc1C,.,-14.9,-8.7,0.2,-7.8%,
CCC12CN(C(=O)c3ccc(C)cc3)CC(CC)(CN(C(=O)c3ccc(C)cc3)C1)C2=O,3.6,-20.1,-1.1,-0.9,0.2%,
COc1ccc2c(c1O)C(=O)c1ccccc1C2=O,-6.5,.,-0.4,0.3,.,
CCCCc1nc(NCc2ccccc2)c(C#N)c2c1CCCC2,7.6,7.6,-0.9,4.1,3.8%,
CCOCc1nnc(NC(=O)c2cc(C(=O)OC)cc([N+](=O)[O-])c2)s1,-8.0,.,1.1,-7.8,-6.7%,
CCCOc1ccc(NC(=O)CC2C(=O)N(Cc3ccccc3)C(=S)N2Cc2cccs2)cc1 (centres undefined),1.2,-6.3,-21.7,-5.2,8.4%,
CCC(CC)c1nnc(NC(=O)C2=COCCO2)s1,-6.3,.,.,-2.2,.,
CC(C)CCN1CCNC(=O)C1CC(=O)NCCCN1CCOCC1 (centres undefined),2.5,.,.,1.8,.,
O=C(c1cc(-c2cccs2)on1)N1CCCCC1,54.4,-31.2,-8.1,0.5,.,
COc1ccc(C(C)NC(=O)c2ccccc2Cl)cc1OC (centres undefined),8.4,-30.1,-1.1,0.6,-3.0%,
